NPYLR7 agonist: activates Aedes aegypti NPYLR7 receptor | HEK293T NPYLR7/Galpha15, GCaMP6s calcium fluorescence | activation, % at 10 µM | hit rate 0.15% among 270,000 | AID 1259423; in the data active = activation above about 40%;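 note: 0% = vehicle and 100% = reference agonist at the receptor; some compounds past the cut are filed as inactive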
NPYLR7 agonist max-min: recorded beside NPYLR7 agonist, whose call it bears; activation, %; measured here: Max-Min RFU normalised activation; some inactives read as strong as hits;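 span of the calcium signal over five minutes; 0% = vehicle and 100% = native peptide agonist; compound fluorescence can raise it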
An asterisk follows results filed as active; & = joins results of further samples. Some of the compounds tested, so the mix of outcomes need not match the whole.

SMILES	NPYLR7 agonist	NPYLR7 agonist max-min
CCCN(Cc1nc2cc(Cl)ccc2c(=O)[nH]1)C(=O)COc1cc(Cl)ccc1Cl	1	23
C=CCNC(=S)Nc1ccc(Br)cc1F	7	7
COc1ccc(C(=O)N2CCSC23C(=O)N(Cc2ccccc2C)c2ccc(OC)cc23)cc1 (centres undefined)	3	7
COc1ccc(Cl)c2sc(N(CCCN(C)C)C(=O)c3ccno3)nc12	0	32
CCOC(=O)c1c(NC(=O)CCl)sc(C)c1CC	-4	-8
Cc1onc(-c2ccccc2)c1C(=O)Nc1ccc(N(C)C)cc1	2	2
O=C(NCC1OCCc2ccccc21)c1cn(CCN2CCOCC2)nn1 (centres undefined)	4	-2
CC(Sc1nnc(-c2cc3ccccc3[nH]2)n1-c1ccccc1)C(N)=O (centres undefined)	-3	-4
COCCNC(=S)NN=Cc1ccsc1	-1	-1
O=S(=O)(Oc1ccc(-c2nc3ccccn3c2NC2CCCCC2)cc1)c1cccc2ccccc12	7	11
CCOCCn1c(=O)c2c(nc3n2CCCN3c2cccc(Cl)c2)n(C)c1=O	5	2
O=C(Cn1nnnc1CN1CCCC1)NCC1(N2CCOCC2)CCCC1	7	4
C=CCn1c(SCC(=O)CC(=O)OCC)nc2sc(CC)cc2c1=O	-10	-9
CCc1nc(C)sc1CNC(=O)c1cc2n(n1)CCCNC2	2	-1
CO/N=C1/CN(c2nc3c(cc2F)c(=O)c(C(=O)O)cn3C2CC2)CC1CN (centres undefined)	1&-29	7&-31
O=C1CSC(c2ccc(F)c(F)c2)N1c1cccc(F)c1 (centres undefined)	-4	-8
COCCNC(=O)NC(=O)N(C1CCCCC1)S(C)(=O)=O	18	24
CC(NCc1nc(C(C)(C)C)no1)c1ccccc1Cl (centres undefined)	11	5
COc1ccc(NC(=O)N2CCc3ccccc3C2c2ccc(C)cc2)cc1OC (centres undefined)	1	11
c1cc(-c2ccc(SCCN3CCCCC3)nn2)ccn1	9	4
COc1ccccc1NS(=O)(=O)c1cccc(NC(=O)CC2CC3CCC2C3)c1 (centres undefined)	1	3
COc1ccc2nc(-n3nc(C)cc3NC(=O)c3ccc4c(c3)OCO4)sc2c1	-7	-13
N#Cc1ccc(OCc2ccc(/C=N\NC(=O)C3CCCCC3)o2)cc1	0	-1
Cc1cc(C(=O)NC(CCn2cncn2)c2ccccc2)nc(C)n1 (centres undefined)	23	10
O=C(NCCCc1ccccc1)c1cccnc1Oc1cccc([N+](=O)[O-])c1	-17	-21
COc1ccc(Cl)c2sc(N(CCCN(C)C)C(=O)c3cc(C)on3)nc12	14	12
Cn1c(=NC(=O)C2=COCCO2)sc2cc(F)cc(F)c21	0	18
O=C1CCC(c2ccc(NC(=O)c3cccc(Cl)c3)cc2)=NN1	-2	-2
O=C1c2ccccc2C(=O)N1CCCCN(C(=O)Cc1ccccc1)c1ccc(Cl)cc1	-1	-12
CC(NS(=O)(=O)c1cc(C(=O)O)cs1)c1ccc(S(C)(=O)=O)cc1 (centres undefined)	2	4
Cc1nccc(CNS(=O)(=O)N(C)Cc2ccc(Cl)cc2)n1	1	0
CCCc1nc(NC[C@@H]2CCCO2)c2cnn(C)c2n1	16	15
O=C1c2cccnc2OC2(CCCC2)CN1Cc1ccccc1	3	4
O=C(NN=Cc1ccc([N+](=O)[O-])o1)c1ccco1	6	6
CC(C)(C)c1ccc(COc2coc(CN3CCN(C(=O)C4COc5ccccc5O4)CC3)cc2=O)cc1 (centres undefined)	19	9
Cc1sc2nc(CN(Cc3ccccc3)CC(O)Cc3ccccc3)[nH]c(=O)c2c1C (centres undefined)	14	18
CCS(=O)(=O)Oc1cccc(CN(Cc2ccco2)C(=O)c2ccc(Br)cc2)c1	11	19
Cc1cc(Nc2ccncc2)n2ncc(-c3ccccc3)c2n1	-4	-6
Cn1nc(C(C)(C)C)cc1NC(=O)CN1CCC(c2ccccc2)C1 (centres undefined)	7	6
COC(=O)Cc1cc(C2CCN(C/C(C)=C/c3ccco3)CC2)n[nH]1	6	-1
Cc1ccc(Cc2nsc(N3CCC(CNC(=O)Nc4ccc(C(F)(F)F)cc4)CC3)n2)cc1	13	13
CSCCC(C)N(C)Cc1cccc2ccccc12 (centres undefined)	-1	-4
CCCCN(C(C)=O)c1c(CC)nc2ccc(C(=O)N3CCN(C)CC3)cn12	16	13
O=C(c1cc(C(F)(F)F)cc(C(F)(F)F)c1)N1CCC(c2nc(-c3ccc(C(F)(F)F)cc3)no2)CC1	21	10
CN(Cc1ccsc1)C(=O)CCc1nnc(CCCc2ccccc2)o1	0	-3
CCc1noc(CN(C)C(=O)CSc2cccc(OC)c2)n1	2	3
CCOc1ccc(-n2nnnc2CNS(=O)(=O)c2ccccc2C(F)(F)F)cc1	-2	-5
Nc1ccc2oc(-c3ccccc3Br)nc2c1	13	7
COc1ccc(S(=O)(=O)NCCOc2ccc3nnc(-c4ccccc4)n3n2)cc1C	-1	-2
Cc1cc(N2CCN(c3cccc(C(F)(F)F)c3)CC2)nc(SCc2cccc(C(=O)NCC3CC3)c2)n1	13	13
The list goes on.
SMILES	NPYLR7 agonist	NPYLR7 agonist max-min
CC(C)CC(=O)N(CCN(C)C)Cc1csc(COc2ccc(Cl)cc2)n1	1	15
Cc1cc(C)c(S(=O)(=O)NC(CC(=O)O)c2ccccc2)cc1C (centres undefined)	-5	-8
Cc1ccccc1NC(=O)CC(=O)N[C@H](C)c1ccccc1	1	-2
COc1ccccc1-c1nnc(-c2cc3c(ccc4ccccc43)oc2=O)o1	2	-5
COCCOC(=O)C1=C(C)OC(=N)C(C#N)C1c1ccc(C)cc1 (centres undefined)	3	-3
O=S(=O)(c1ccc(Cl)cc1)N1CCCC2CCCCC21 (centres undefined)	2	9
COc1cc2c(cc1OC)C(c1c(F)cccc1Cl)N(C(=O)C(C)(C)C)CC2 (centres undefined)	6	4
CCOC(=O)c1csc(CN(C(=O)Nc2c(C)cccc2C)C2CCCCC2)n1	-9	-9
CCOC(=O)CCc1c(C)nc2ncnn2c1NC(C)CN(C)C (centres undefined)	25	13
CCc1ccc(S(=O)(=O)Nc2ccc(Nc3ccc(-n4ccc(C)n4)nn3)cc2)cc1	-5	-11
Cc1cc(Cl)ccc1Nc1nc(NCc2ccco2)nc2nccnc12	3	9
Cc1ccc(C(=O)N2CCN(C(C(=O)Nc3cccc(F)c3)C3CCCC3)CC2)cc1[N+](=O)[O-] (centres undefined)	13	15
O=C(O)CC1C(=O)NCCN1Cc1cccs1 (centres undefined)	1	-1
CCCC[N+]1(C)Cc2ccccc2C1	0	-9
O=C1CCC2(CCN1)CCN(C(=O)CCc1cnc[nH]1)CC2	10	8
Cc1ccoc1C(=O)Nc1sc2c(c1C#N)CCNC2	9	4
O=c1cc(O)c2c(=O)n(-c3ccccc3)c3c(c2o1)CCCCCC3	4	5
O=C(Nc1nc2ccc([N+](=O)[O-])cc2s1)c1ccccc1Br	-5	-10
Cc1ccc(Cl)cc1NC(=O)CN1CCC(C(=O)N2CCCC2)CC1	11	9
Cc1ccc(-n2cc(CNCCN3CCNC3=O)c(-c3cccc(C)c3)n2)cc1	-5	-7
Cc1ccc(NC(=O)N(Cc2csc(COc3ccc(Cl)cc3)n2)C(C)C)cc1	0	0
COc1ccccc1OCc1cc(C(=O)NC2CCCCCC2)no1	-3	-9
COc1ccccc1NS(=O)(=O)c1ccc(Br)cc1Cl	-2	-2
Oc1ccccc1N1CCN(c2nnc(Br)s2)CC1	7	4
CCC1CN(CC(=O)NCCCn2nnc3ccccc32)Cc2cc(OC)ccc2O1 (centres undefined)	17	9
CCN1CCN(c2cc(=O)n(-c3ccc(Cl)cc3)c(=O)[nH]2)CC1	7	9
Cn1cc(NC(=O)CN2CCCC(Nc3ccc4c(c3)OCO4)C2)cn1 (centres undefined)	2	-2
c1ccc2c(c1)CCC[C@H]2Nc1nc2ccccc2[nH]1	-3	-30
CCC/C=C/c1c(C)c2ccccc2[nH]c1=O	8	-9
COc1cccc(NC(=O)CSc2ccc3nnc(-c4ccncc4)n3n2)c1	-2	-3

Part of the list above, with bars between the fields.
SMILES | NPYLR7 agonist | NPYLR7 agonist max-min
COc1ccccc1OCc1cc(C(=O)NC2CCCCCC2)no1 | -3 | -9
Cc1ccc(NC(=O)N(Cc2csc(COc3ccc(Cl)cc3)n2)C(C)C)cc1 | 0 | 0

The results go on:
SMILES	NPYLR7 agonist	NPYLR7 agonist max-min
COc1ccc(CN(CCN2CCOCC2)CC(C)(C)O)cc1OC	-3	9
CNc1nc2cnc(Nc3ccc(OC)cc3)cc2n1Cc1ccccc1	-2	-3
Cc1cc(C)c2c(c1)OCN(Cc1ccc3c(c1)OCO3)C2	-6	-4
Nc1nc(Nc2cccc(Cl)c2)nc(C(F)(F)F)n1	-2	-8
O=[N+]([O-])c1cc(S(=O)(=O)Nc2ccc3cn[nH]c3c2)ccc1Cl	4	4
CCc1nccc(CN2CCC(c3ccncc3)CC2)n1	4	1
CCOC(=O)c1nn(-c2ccccc2Cl)c(=O)cc1OS(=O)(=O)c1cc(OC)ccc1OC	-1	3
CC1(C(=O)NCc2ccc(C(F)(F)F)cc2)CCN1Cc1ccccc1OC(F)F (centres undefined)	10	-1
COc1ccc(C(=O)Nc2cc(-c3nc4cc(C)ccc4o3)ccc2C)cc1[N+](=O)[O-]	-9	-13
O=C(CNS(=O)(=O)c1cccc(Cl)c1Cl)Nc1cc(Cl)ccc1Cl	-2	-3
COc1ncccc1-c1nc2ccccc2n1CCO	0	15
COc1cc(NC(=O)c2ccc3[nH]ccc3c2)ccc1NC(=O)CC(C)C	9	7
CCCCCCn1c(SCCOC)nc2c1c(=O)[nH]c(=O)n2C	-7	-2
COc1ccc(Cc2noc(CN3CCC(C(O)c4cccs4)CC3)n2)cc1OC (centres undefined)	7	3
Cc1noc(C)c1S(=O)(=O)N(CC(C)C)C1CCN(C)CC1	3	12
O=C1CCc2cc(S(=O)(=O)OCC(F)(F)F)ccc2N1	8	3
O=C(O)C1CCC(CNS(=O)(=O)c2cccs2)CC1 (centres undefined)	9	7
Cc1cccc(OCC(O)CSc2nnc(C)n2-c2ccccc2)c1 (centres undefined)	5	-1
O=C(CCCCSc1nnc(-c2ccco2)n1-c1cccc(C(F)(F)F)c1)N1CCN(C/C=C/c2ccccc2)CC1	18	19
Cc1ccc(C(=O)CCC(=O)N(C)CCCC(=O)O)cc1C	0	10
COc1ccc(C(CC(=O)N2CC(C)OC(C)C2)c2c[nH]c3ccccc23)c(OC)c1 (centres undefined)	0	9
O=C(Cc1cn2ccsc2n1)N/N=C1\CCCCC1C1CCCCC1 (centres undefined)	1	1
COc1cccc(CNC(=O)c2ccc(-c3cc(-c4cccc(C(F)(F)F)c4)n[nH]3)cc2)c1	-7	-8
O=C(CC(c1cccc2c1OCO2)c1c[nH]c2ccccc12)NCCN1CCOCC1 (centres undefined)	5	11
O=C(NCCn1nc(-c2ccncc2)ccc1=O)Nc1ccccc1	13	5
COc1ccccc1N=c1scc(C)n1N1CCOCC1	-8	-10
O=C(CSc1nn(-c2ccc(F)cc2)c(=S)s1)Nc1cc(F)ccc1F	2	1
Nc1cc(F)ccc1-c1nnc(-c2ccc(F)cc2)c(=O)[nH]1	5	3
CCOC(=O)C1CCN(C(c2ccncc2)c2c(O)cc(C)n(Cc3cccnc3)c2=O)CC1 (centres undefined)	3	-3
CCc1nc2ccc(C(=O)NCCN3CCOCC3)cn2c1N(CC)CCN(C)C	1	-1
CCCn1c(C)c(C)n2c3c(=O)n(Cc4ccc(F)cc4)c(=O)n(C)c3nc12	2	5
CC(C(=O)N1CCCCCC1)S(=O)Cc1cccc(C(N)=O)c1 (centres undefined)	-2	-3
O=C(Nc1cccc(Cl)c1)N(Cc1c(-c2ccccc2F)noc1N1CCOCC1)C1CC1	10	9
CCc1nc(C)ccc1OCC(=O)N1Cc2cnc(CC(C)C)nc2C1	11	10
CC(=O)NC1=NN(C(C)=O)C2(S1)C(=O)N(Cc1ccccc1OC(C)C)c1ccccc12 (centres undefined)	14	12
COCC(O)CN(Cc1cccn1Cc1cccc(OC)c1)C1CCCCC1 (centres undefined)	14	7
O=c1[nH][nH]c2c1CCN(Cc1cc3n(n1)CCNC3)CC2	-1	-2
Cc1ccccc1Oc1cnn(-c2ccc(F)cc2)c(=O)c1Nc1ccc(C(=O)NCc2ccc3c(c2)OCO3)cc1	18	20
CCN(C(=O)CS(=O)(=O)C1CCCC1)c1nc(C)cs1	9	3
COCc1cc(CNC(=O)c2cc3sccc3[nH]2)[nH]n1	-5	-10

Sorted by length of the SMILES (high to low): 7 of the compounds above.
SMILES	NPYLR7 agonist	NPYLR7 agonist max-min
Cc1cc(N2CCN(c3cccc(C(F)(F)F)c3)CC2)nc(SCc2cccc(C(=O)NCC3CC3)c2)n1	13	13
COc1ccc(S(=O)(=O)NCCOc2ccc3nnc(-c4ccccc4)n3n2)cc1C	-1	-2
CCOc1ccc(-n2nnnc2CNS(=O)(=O)c2ccccc2C(F)(F)F)cc1	-2	-5
COCC(O)CN(Cc1cccn1Cc1cccc(OC)c1)C1CCCCC1 (centres undefined)	14	7
Cc1cccc(OCC(O)CSc2nnc(C)n2-c2ccccc2)c1 (centres undefined)	5	-1
CCOC(=O)CCc1c(C)nc2ncnn2c1NC(C)CN(C)C (centres undefined)	25	13
Nc1ccc2oc(-c3ccccc3Br)nc2c1	13	7

Full records, quoted from the list. Order of screens: NPYLR7 agonist | NPYLR7 agonist max-min
`O=c1[nH][nH]c2c1CCN(Cc1cc3n(n1)CCNC3)CC2` is listed as -1 | -2
`CCN(C(=O)CS(=O)(=O)C1CCCC1)c1nc(C)cs1` is listed as 9 | 3

Next part
SMILES	NPYLR7 agonist	NPYLR7 agonist max-min
Cc1cc(C(=O)N(CCc2ccccc2)CC2CCCN(C)C2)nn1C (centres undefined)	4	1
CCC(=O)Nc1cc(Cl)ccc1C(=O)N1CC[C@H](NC(C)=O)C1	-7	-10
CCOC(=O)NC1=CC(=NS(=O)(=O)c2ccc(C)cc2)c2ccccc2C1=O	15	3
O=C1NC(Cc2ccccc2Cl)(C2CCNCC2)C(=O)N1C1CCCC1 (centres undefined)	19	8

Screens deposited in PubChem by Fisher Drug Discovery Resource Center.
